# Compound activity: PubChem, National Center for Advancing Translational Sciences (NCATS)
# ClpP mod – qHTS Assay for Activators of ClpP. purified B. subtilis ClpP, FRET peptide cleavage, 20 min. Potency, µM (top dose mostly 57.5 µM), for inactives: top-dose activity change, negative = active. ATP-dependent Clp protease proteolytic subunit (Bacillus subtilis (strain 168)), P80244. AID 651965, 2013. 340,000 compounds, 1.9% hits; active = well fitted falling curve with a large enough effect; inconclusive = small, poorly fitted or top-dose-only effect; inactive = no such curve, though single readings can be large or run the other way; also: the source files actives as falling curves though it sought activators and does not explain the sign; nearly all actives have a fitted effect of over 65% in size; many hits overshoot -100%
# Target sequence (P80244 whole entry, looked up): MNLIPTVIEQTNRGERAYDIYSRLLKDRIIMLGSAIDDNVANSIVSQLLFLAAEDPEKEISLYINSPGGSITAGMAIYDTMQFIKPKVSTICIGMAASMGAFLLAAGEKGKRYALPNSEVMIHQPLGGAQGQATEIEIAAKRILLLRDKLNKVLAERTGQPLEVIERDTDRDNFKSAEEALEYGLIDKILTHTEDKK
#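 FRET quenching reversal measured ClpP activation: 10 microg/mL B. subtilis ClpP at pH 8 with the FRET-FV decapeptide, read at 430 nm after 320 nm excitation. The 20-min minus 0-min signal was scaled between DMSO/no-enzyme wells and ADEP (5.8 microM final).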
# * = called active by the depositor; ? = inconclusive. Potency is read from the fitted curve at half-maximal effect. This is a subset (hit frequency here may not be typical).
SMILES,ClpP mod
CCc1ccccc1N1C(=O)N(Cc2ccccc2C)c2ccccc2S1(=O)=O,-0.3%
COc1cc(OC)c(NC(=O)N2CCC(CN3CCCC3)CC2)cc1Cl,0.2%
O=C(C1CCC(Cn2c(=O)c3sccc3n(Cc3ccc(F)cc3)c2=O)CC1)N1CCOCC1 (centres undefined),0.7%
CCOC(=O)Cn1c(=O)n(C2CCCCC2)c2nc(-c3ccc(OCC)cc3)nc(C(N)=O)c21,4.3%
CN(CC(=O)Nc1cccc(C(F)(F)F)c1)S(=O)(=O)c1cccs1,2.5%
Cn1c(=O)c(=O)n(C)c2cc(NC(=O)c3cccc(F)c3)c(Cl)cc21,?
O=C(CC1N=C2c3ccccc3N=C(SCc3cccc(Cl)c3)N2C1=O)NCCc1ccccc1 (centres undefined),3.9%
Cc1ccc(C)c(CN2C(=O)c3ccccc3S(=O)c3ccc(C(=O)N4CCC(C)CC4)cc32)c1 (centres undefined),0.4%
CCOC(=O)c1cccc(NC(=O)c2cc3cc4ccc(C)cc4nc3s2)c1,3.8%
CCOc1ccc(CCNC(=O)c2ccc3c(c2)nc2n3CCOC2)cc1OCC,0.4%
CCc1cnc2c(c1SCc1c(F)cccc1Cl)c(=O)n(C)c(=O)n2C,-5.9%
COc1ccc(Br)c2c1-c1nc(NC(=O)c3ccc(F)cc3)sc1C2,-4.9%
CCCSCCCNC(=O)C1CCN(c2nc3ccccc3nc2C(F)(F)F)CC1,8.4%
Cc1ccc(-n2ncc(C(=O)NCCN3CCCC3)c2C2CCN(C(=O)OC(C)(C)C)CC2)cc1C,0.7%
CNC(=O)c1cc2n(n1)CCCN(Cc1ccc(F)cc1)C2=O,2.8%
CCNC(=O)C1CCCN(c2nn3cc(-c4ccc(C)cc4)nc3s2)C1 (centres undefined),-1.3%
Cc1cc(C)c(NC(=O)CCn2c(=O)c3cccn3c3ccccc32)c(C)c1,-4.7%
CCCN1CNc2c(c(=O)[nH]c(=S)n2CCC)C1,-7.1%
COc1ccc(C)cc1NC(=O)c1cc(S(=O)(=O)NC2CCCCCC2)ccc1F,-27%
O=C(Nc1ccc(F)cc1)C(c1ccccc1OC(F)(F)F)N1CCN(C(=O)c2ccco2)CC1 (centres undefined),-22%
O=C(Nc1ccccc1)c1ccc(-n2nncc2-c2ccccc2)cc1,12%
CCOc1ccc(CCNC(=O)c2sc3ncccc3c2-n2c(C)ccc2C)cc1,1.0%
COc1nc(-c2ccccc2)ccc1-c1noc(-c2ccccc2Br)n1,-19%
CCC(C)[C@H]1CNC(=O)C(=O)N1CC1CCCCC1 (some centres undefined),-1.1%
CCc1ccc2ncc3c(-c4ccccc4)nn(-c4ccccc4)c3c2c1,?
Cc1cccc2c1-c1sc(C(=O)NCCCN3CCN(c4ccccc4F)CC3)cc1CO2,3.8%
CCOc1ccc(CNS(=O)(=O)c2ccc3c(c2)CCCN3C(C)=O)cc1OC,-1.2%
CCN(CC)c1ccc(NC(=O)c2cc3c(=O)n4cccc(C)c4nc3n2C)c(C)c1,1.1%
CN(Cc1ccccc1)C(=O)[C@@H]1CCCN1C(=O)[C@@H]1CCCN1C(=O)OC(C)(C)C,0.8%
Cc1ccc(-c2cc(C(=O)NC(C)c3ccccc3)c3ccccc3n2)cc1C (centres undefined),3.7%
CCc1ccccc1NC(=O)c1ccc(Cn2nc(N3CCN(c4ccccc4)CC3)ccc2=O)o1,-2.2%
CSc1ccc(-c2nc3ccc(C)cn3c2Nc2ccccc2C)cc1,3.5µM*
Cc1ccc(Cl)cc1NC(=O)C(=O)NCCc1sc(-c2ccc(F)cc2)nc1C,-2.0%
Cc1nn(-c2ccccc2)c(OC(=O)c2ccccc2F)c1S(=O)(=O)c1ccccc1,-3.4%
COc1cccc(CCNC(=O)c2c(O)nc3c(C)cccn3c2=O)c1,-5.1%
COc1ccc(OCC(=O)OCc2cc(=O)n3nc(-c4cccs4)sc3n2)cc1,64%
O=C(c1ccc2c(c1)CCN2S(=O)(=O)c1ccc(Cl)cc1)N1CCN(c2ccc(F)cc2)CC1,-0.8%
Cc1cccc(Cn2cc(S(=O)(=O)c3cccc(C)c3)c(=O)c3cc(F)c(N4CCOCC4)cc32)c1,-14%
CC1=C(C(=O)Nc2ccc(C)cc2C)C(c2cccs2)n2nc(SCc3ccccc3Cl)nc2N1 (centres undefined),2.0%
CCOc1ccccc1C(=O)N1CCCCC1CCN1CCOCC1 (centres undefined),0.1%
Nc1cccc(/C=C2\C=Cc3ccccc32)c1,-9.8%
Nc1nc(N)c2c(OCc3ccc(C(F)(F)F)cc3)cccc2n1,4.5%
CCN(C(=O)CSc1nc2n[nH]c(C)c2c(=N)n1-c1cccc(OC)c1)c1cccc(C)c1,-8.8%
CCOc1ccccc1CNC(=O)c1cc2c(=O)n(Cc3ccco3)ccc2nc1C,4.3%
CCOc1ccccc1NC(=O)C1CCCN1S(=O)(=O)c1ccc2nc(-c3ccccc3)[nH]c2c1 (centres undefined),?
CCCCCCCCN1C(=O)[C@H](CC(=O)NCCCC)C[C@@]2(C(=O)OCC)CCCC=C12,-2.2%
O=S(=O)(c1ccc(C2CCCCC2)cc1)N1CCN(c2ccc(Cl)c(Cl)c2)CC1,-3.2%
O=C(CN1C(=O)COc2ccc(S(=O)(=O)N3CCCC3)cc21)N1CCN(c2ccc(F)cc2)CC1,-3.4%
Cc1ccc(Oc2nc3ccccn3c(=O)c2/C=C(\C#N)c2nc3ccccc3s2)c(C)c1,4.1%
COc1ccc(CCNC(=O)Cn2c(=O)n(-c3ccc(C)c(C)c3)c(=O)c3c(C)c(C)sc32)cc1OC,-1.5%
# (next part)
SMILES,ClpP mod
COC(=O)c1scc(-c2ccc(C)cc2)c1S(=O)(=O)Nc1ccc(N(C)C)cc1,-2.1%
COc1ccc(NC(=O)CSc2nc3cc(OC)c(OC)cc3c3nc(-c4ccccc4)nn23)cc1Cl,-27%
O=C(NCc1cccc(F)c1)c1ccc(NC(=O)c2nsc3ccccc23)cc1,36%
COC(=O)c1sccc1S(=O)(=O)N1CCN(c2cccc(C)c2)C(C)C1 (centres undefined),1.2%
CCC1CCCCN1C(=O)c1c[nH]c2ccc(S(=O)(=O)Nc3cccc(OC)c3)cc2c1=O (centres undefined),-17%
COc1ccc(C2C(C(=O)Nc3ccc(Cl)cc3)=C(C)Nc3nc(SCc4cccc(C)c4)nn32)cc1OC (centres undefined),0.8%
CCOc1ccc(-c2cc(C(=O)NCc3ccccc3Cl)c3ccccc3n2)cc1,3.7%
CC1=C(C(=O)Nc2ccccc2)C(c2cccc(Cl)c2)n2nc(SCC(=O)c3ccc(C)cc3)nc2N1 (centres undefined),-3.0%
Cc1cc(C)c(NC(=O)C2CCN(C(=O)N3CCOc4ccccc43)CC2)c(C)c1,0.7%
COc1ccc2c(c1)-c1nc(NC(=O)c3ccc(C)cc3)sc1CC2,?
CCCCCCCCN1C(=O)[C@H](CC(=O)N2CCSCC2)C[C@@]2(C(=O)OCC)CCCC=C12,0.8%
COc1ccc(CNC(=O)CSc2ncc3c(n2)-c2cc(Cl)ccc2N(C)S3(=O)=O)cc1,73%
Cc1nc2ccccn2c(=O)c1NC(=O)c1ccccc1Cl,-5.6%
COc1cc(Cl)c(C)cc1NC(=O)CSc1cc(=O)n(C)c2cc(Cl)ccc12,0.1%
Cc1ccccc1C(=O)Nc1nnc(SCc2cc(=O)c3c(C)ccc(C)c3[nH]2)s1,-3.6%
Cc1[nH]c2ccc(C(=O)NCCc3ccccc3Cl)cc2c1C,-10%
CCOC(=O)N1CCN(Cc2nc3cc(NC(C)=O)ccc3n2C(C)C)CC1,?
C=Cc1ccc(Cn2c(C(=O)O)c(CNCc3ccc(F)cc3)c3ccc(C)cc32)cc1,-24%
CC(C)c1ccc(NC(=O)CN2C(=O)C3(SCC(=O)N3c3ccc(F)cc3)c3ccccc32)cc1 (centres undefined),1.2%
Cc1nc(-c2ccccc2)sc1-c1ccc(SCC(=O)NCc2ccc(Cl)cc2)nn1,-24%
CC(C)(C)OC(=O)N1CCC(c2c(C(=O)O)cnn2-c2ccc(F)cc2F)CC1,-0.3%
Cc1nn(-c2ccccc2)c(OC(=O)c2ccccc2)c1S(=O)(=O)c1ccccc1,0.1%
Cc1cc(S(=O)(=O)Nc2cc3c(cc2C)n(C)c(=O)c(=O)n3C)ccc1F,-4.6%
CCc1c(C)sc2c1CCN(C(=O)Nc1cc(C)ccc1OC)C2c1ccc(F)cc1 (centres undefined),-0.4%
O=C(Nc1ccc(F)c(Cl)c1)C1CCN(S(=O)(=O)c2ccc3c(c2)CCCN3C(=O)C2CCC2)CC1,-1.0%
CCN1CCN(C(=O)c2ccc3c(c2)N(Cc2cc(C)ccc2C)C(=O)c2ccccc2S3(=O)=O)CC1,1.5%
CC(C)c1ccc2oc(-c3cccc(NC(=O)c4ccc5c(c4)OCCO5)c3)nc2c1,?
COc1cccc(CC(=O)Nc2ccc3nc(Nc4cccc(C(F)(F)F)c4)cc(C)c3c2)c1,3.7%
COc1cccc(CNC(=O)c2ccc3c(c2)nc2n3CCOC2)c1OC,-1.0%
Cc1ccc(C2c3c(oc4ccccc4c3=O)C(=O)N2c2ccc(C)cn2)cc1 (centres undefined),2.0%

# 3 entries already listed, arranged by number of heavy atoms, highest first:
SMILES,ClpP mod
O=C(c1ccc2c(c1)CCN2S(=O)(=O)c1ccc(Cl)cc1)N1CCN(c2ccc(F)cc2)CC1,-0.8%
CCCCCCCCN1C(=O)[C@H](CC(=O)NCCCC)C[C@@]2(C(=O)OCC)CCCC=C12,-2.2%
CCOc1ccccc1CNC(=O)c1cc2c(=O)n(Cc3ccco3)ccc2nc1C,4.3%

# Later entries
SMILES,ClpP mod
COc1ccc(-c2nn(C)c3sc(C(=O)N4CCN(c5cccc(C)c5C)CC4)cc23)cc1OC,-12%
COc1cccc(CNC(=O)Cc2c(C(=O)O)c(C)cn2C)c1,1.8%
COc1ccc(CN2[C@@H](CC(=O)O)c3ccc(C(F)(F)F)cc3S2(=O)=O)cc1,-0.5%
CSc1cccc(NC(=O)C2CCN(c3nc4ccccc4[nH]3)CC2)c1,0.5%
CCc1ccccc1NC(=O)CCCN1C(=O)CCn2nc(-c3cn(C)c4ccccc34)cc21,-0.6%
CCOc1ccc(NC(=O)c2oc3ccccc3c2NC(=O)c2c(F)cccc2F)cc1,-5.8%
COc1ccccc1C(=O)NCc1ccc2c(c1)CCN2C(=O)c1cccc(C)c1,-13%
CCOc1cc(C2C(C(=O)Nc3ccccc3)=C(C)Nc3ncnn32)cc(Br)c1O (centres undefined),0.5%
O=[N+]([O-])c1ccc(/C=C2\C=Cc3ccccc32)cc1,3.4%
COc1ccc(C(=O)NCCn2cc(SCC(=O)NCCc3ccc(OC)c(OC)c3)c3ccccc32)cc1,-2.5%
COc1ccc(NC(=O)Nc2nnc(SCC(=O)Nc3cccc(C)c3C)s2)cc1,2.8%
CCn1c(NCc2cccc(Cl)c2)nc2ccccc21,0.6%
Cc1cc(O)c(CN2CCN(c3ccccc3)CC2)c2oc(=O)cc(C)c12,4.0%
Cc1cccc(NC(=O)c2cc(S(=O)(=O)NCc3ccc4c(c3)OCO4)ccc2F)c1C,1.6%
COc1ccc(CNCCCSc2nnnn2-c2ccccc2)cc1,1.2%
COc1cc(OC)c(C(=O)NCc2nc(-c3ccccc3)no2)cc1OC,-7.0%
CC(=O)Nc1nonc1-c1nnc(SCC(=O)Nc2cc(C)cc(C)c2)n1-c1ccccc1,9.5%
COc1ccc(N2CCN(C(=O)C3CCCN(S(=O)(=O)c4ccc5c(c4)CCCN5C(C)=O)C3)CC2)cc1 (centres undefined),-1.2%
COc1ccc2c(Sc3ccccc3)c(C(=O)NCC(C)c3ccccc3)[nH]c2c1 (centres undefined),-9.1%
CC(=O)c1cccc(NC(=O)CSc2nc(=O)n(Cc3cccnc3)c3c2CCC3)c1,0.5%
NC1=NC(c2cc(F)cc(F)c2)n2c(nc3ccccc32)N1 (centres undefined),-0.6%
CCOC(=O)C1CCCN(S(=O)(=O)c2csc(C(N)=O)c2)C1 (centres undefined),0.6%
COc1ccc(Cn2c(SCC(N)=O)nc3c(sc4ccccc43)c2=O)cc1,?
CCOC(=O)c1ccc2[nH]c(CSc3nnc(-c4cccc(F)c4)n3C)cc(=O)c2c1,-0.1%
COc1ccc(Oc2nc3c(c(=O)n(C)c(=O)n3C)n2Cc2ccc(Cl)cc2Cl)cc1,-2.1%
CC1=C(c2ccc(C(C)C)cc2)S(=O)(=O)N=C1N1CCC(C(=O)NCc2ccco2)CC1,-2.2%
Cc1ccc(CCNC(=O)C2CCCN(c3nnc(C)c4c(C)n(-c5ccccc5)nc34)C2)cc1 (centres undefined),-14%

# Of the compounds above, 11 contain two or more sulfur atoms.
SMILES,ClpP mod
CN(CC(=O)Nc1cccc(C(F)(F)F)c1)S(=O)(=O)c1cccs1,2.5%
COc1ccc(OCC(=O)OCc2cc(=O)n3nc(-c4cccs4)sc3n2)cc1,64%
CC1=C(C(=O)Nc2ccc(C)cc2C)C(c2cccs2)n2nc(SCc3ccccc3Cl)nc2N1 (centres undefined),2.0%
COC(=O)c1scc(-c2ccc(C)cc2)c1S(=O)(=O)Nc1ccc(N(C)C)cc1,-2.1%
COC(=O)c1sccc1S(=O)(=O)N1CCN(c2cccc(C)c2)C(C)C1 (centres undefined),1.2%
COc1ccc(CNC(=O)CSc2ncc3c(n2)-c2cc(Cl)ccc2N(C)S3(=O)=O)cc1,73%
Cc1ccccc1C(=O)Nc1nnc(SCc2cc(=O)c3c(C)ccc(C)c3[nH]2)s1,-3.6%
Cc1nc(-c2ccccc2)sc1-c1ccc(SCC(=O)NCc2ccc(Cl)cc2)nn1,-24%
COc1ccc(NC(=O)Nc2nnc(SCC(=O)Nc3cccc(C)c3C)s2)cc1,2.8%
CCOC(=O)C1CCCN(S(=O)(=O)c2csc(C(N)=O)c2)C1 (centres undefined),0.6%
COc1ccc(Cn2c(SCC(N)=O)nc3c(sc4ccccc43)c2=O)cc1,?
